# From PubChem
# MLL AF4-AF9 inh: inhibitors of AF4 peptide binding to AF9, primary screen, biochemical, AlphaScreen, biotin-AF4 peptide, FLAG-AF9, single point; hit rate 0.47% among 350,000; AID 651704, 2012; Protein AF-9 (Homo sapiens), P42568; inhibition, % at 10 µM;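 active = every replicate reaching a set inhibition limit, whatever the replicate mean, cut at about 25% in these data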;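 note: 0% = plate neutral control median and 100% = total signal loss; the record names both 10 and 1 µM as test concentration; the first replicate is given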
# Target sequence (P42568 whole entry, looked up): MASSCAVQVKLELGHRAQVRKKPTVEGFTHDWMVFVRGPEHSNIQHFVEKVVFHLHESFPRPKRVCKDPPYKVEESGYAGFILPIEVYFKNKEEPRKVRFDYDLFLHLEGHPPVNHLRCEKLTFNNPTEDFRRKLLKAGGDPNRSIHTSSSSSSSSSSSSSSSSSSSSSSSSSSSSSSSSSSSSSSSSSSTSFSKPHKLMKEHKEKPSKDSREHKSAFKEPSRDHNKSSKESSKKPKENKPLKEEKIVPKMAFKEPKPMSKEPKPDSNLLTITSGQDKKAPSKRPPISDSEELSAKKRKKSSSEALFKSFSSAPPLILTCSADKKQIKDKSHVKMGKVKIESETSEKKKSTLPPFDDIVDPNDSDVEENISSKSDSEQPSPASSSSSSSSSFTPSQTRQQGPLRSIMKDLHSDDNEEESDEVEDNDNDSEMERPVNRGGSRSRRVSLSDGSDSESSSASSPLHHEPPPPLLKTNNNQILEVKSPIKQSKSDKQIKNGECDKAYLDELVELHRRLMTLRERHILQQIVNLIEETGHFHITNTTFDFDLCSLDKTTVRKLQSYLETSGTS
# FGF22 binding: binders of human FGF22 protein, primary screen, FGF22 synaptogenesis inhibitor project, biophysical, thermal shift, single point; calls only at 9.99 µM; hit rate 1.5% among 340,000; recombinant FGF22 thermal shift, SYPRO orange fluorescence; percent of sucrose octasulfate shift, DMSO zero; Fibroblast growth factor 22 (Homo sapiens), Q9HCT0;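 active = melting point raised past a set limit in the mean and every replicate; three in four hits are not shown here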
# Target sequence (Q9HCT0 whole entry, looked up): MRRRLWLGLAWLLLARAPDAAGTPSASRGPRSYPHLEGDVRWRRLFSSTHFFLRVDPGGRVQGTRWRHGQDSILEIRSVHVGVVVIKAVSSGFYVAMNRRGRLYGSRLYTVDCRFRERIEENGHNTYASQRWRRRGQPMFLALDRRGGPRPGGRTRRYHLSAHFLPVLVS
# Ecoli rRNA inh: reduced GFP signal of wild-type E. coli, primary screen, bacterial rRNA inhibitor project, GFP/RFP fluorescence, OD600, single point. E. coli WT GFP vs humanized-ribosome RFP mutants, 24 h; stronger effect = lower value; DMSO median 0, no signal -100. GFP signal change (wild-type ribosome), % (no concentration beside the values). hit rate 1.6% among 350,000;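 active = significant combined selectivity score with lowered wild-type GFP, culture density cut under 30%, mutant RFP and density less affected; inactive = any of these conditions unmet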; note: one replicate is shown; some compounds called inactive have numbers as strong as hits
# Ecoli rRNA inh OD600: further read-out of Ecoli rRNA inh, marked with its call; OD600 change, %; measured here: OD600 growth;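 optical density of the mix in the first replicate; 0 = DMSO median and -100 = no signal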
# Ecoli rRNA inh RFP: recorded beside Ecoli rRNA inh, whose call it bears; RFP signal change, %; measured here: RFP humanized mutant strains;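 first replicate; 0 = DMSO median and -100 = no signal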
# The depositor's hits bear a star; i = inactive; + = active, no number; & = joins results of further samples. Only part of the results is shown. The share of hits here may be higher or lower than overall.
SMILES,MLL AF4-AF9 inh,FGF22 binding,Ecoli rRNA inh,Ecoli rRNA inh OD600,Ecoli rRNA inh RFP
CN(C)CC(=O)N[C@@H]1CC[C@H](CCNC(=O)C2CCCC2)O[C@H]1CO,0.8,i,-1,6,-2.4
COc1ccc(S(=O)(=O)N(C)C[C@@H]2OCCCC[C@@H](C)Oc3ccc(NS(=O)(=O)c4c(C)noc4C)cc3C(=O)N([C@H](C)CO)C[C@@H]2C)cc1,-0.4,i,2,-5,-0.6
C/C=C/c1ccc2c(c1)O[C@H](CN(C)C(=O)c1ccc3c(c1)OCO3)[C@H](C)CN([C@H](C)CO)S2(=O)=O,9.2,i,-5,-10,0.5
COc1ccc(NC(=O)N(C)C[C@@H]2Oc3cc(Br)ccc3S(=O)(=O)N([C@H](C)CO)C[C@H]2C)cc1,-2.5&0.6,i,11&-4,9&-9,0.1&-0.5
O=C(CN1CCOCC1)N[C@@H]1CC[C@@H](CCNC(=O)C2CCC2)O[C@@H]1CO,-0.6,i,0,-5,-2.1
CN1CCN(C(=O)C[C@@H]2C[C@H]3c4cc(NS(C)(=O)=O)ccc4O[C@H]3[C@H](CO)O2)CC1,-0.8,i,1,5,-1.9
COc1cccc(CNC(=O)C[C@H]2CC[C@@H]3[C@H](COc4ccc(NS(=O)(=O)c5ccccc5F)cc4C(=O)N3C)O2)c1,-1.9,i,-3,-9,-1.7
CC(=O)Nc1cc(-c2cccc(C(=O)N(C)C)c2)cn2c(-c3cccc(C(F)(F)F)c3)cnc12,-0.7,i,4,-9,27
CCC(=O)N(C)C[C@@H]1Oc2ncc(/C=C/c3ccccc3)cc2C(=O)N([C@H](C)CO)C[C@H]1C,-0.7,i,4,5,-1.6
COc1ccc(NC(=O)N(C)C[C@@H]2Oc3ncc(C#Cc4cccc(F)c4)cc3C(=O)N([C@H](C)CO)C[C@@H]2C)cc1,1.4,i,-1,-3,3.5
CCC(=O)N[C@H]1C=C[C@@H](CC(=O)NCc2cc(F)cc(F)c2)O[C@H]1CO,-2.9,i,-1,5,-1.3
COc1ccc(-c2cnc3c(c2)C(=O)N([C@H](C)CO)C[C@H](C)[C@H](CN(C)C(=O)Cc2cccnc2)O3)cc1,-6.6&-4.8,i,5&3,2&1,-2.1&-2.1
CN1CCN(C(=O)C[C@H]2C=C[C@@H](NC(=O)c3ccc4c(c3)OCO4)[C@H](CO)O2)CC1,-16,+,-3,-8,-3.0
COc1ccccc1-c1ccc2c(c1)O[C@H](CN(C)S(=O)(=O)c1ccc(F)cc1)[C@H](C)CN([C@H](C)CO)S2(=O)=O,0.6,i,-4,-8,1.1
C[C@H](CO)N1C[C@H](C)[C@H](CN(C)Cc2ccc(Cl)c(Cl)c2)Oc2ccc(NS(=O)(=O)c3cn(C)cn3)cc2C1=O,2.1,i,-6,-17,-0.8
Cc1noc(C)c1NC(=O)N(C)C[C@@H]1Oc2ccc(NC(=O)CCCN(C)C)cc2C(=O)N([C@@H](C)CO)C[C@H]1C,-2.7,i,2,7,0.6
Cc1ccccc1-c1ccc([C@@H]2[C@@H](CO)N3CCCCN(C(=O)Nc4ccc(F)cc4)C[C@H]23)cc1,7.8,i,-56,-70,-6.6
C[C@@H]1CN([C@H](C)CO)C(=O)c2cc(NC(=O)Nc3cccc4ccccc34)ccc2O[C@H]1CN(C)Cc1ccc(C(F)(F)F)cc1,-0.7&-1.1,i,0&14,5&16,0.4&9.6
C/C=C/c1ccc2c(c1)O[C@@H](CN(C)C(=O)Nc1cc(F)ccc1F)[C@H](C)CN([C@H](C)CO)S2(=O)=O,2.0,i,-6,-26,-5.9
Cc1ccc(S(=O)(=O)N(C)C[C@H]2Oc3c(NC(=O)c4ccc(-c5nccs5)cc4)cccc3C(=O)N([C@@H](C)CO)C[C@@H]2C)cc1,1.1,i,-3,-7,0.9
CCC(=O)N1CCCCN2[C@H](C1)[C@@H](c1ccc(-c3cccc(C(=O)N(C)C)c3)cc1)[C@@H]2CO,-6.0,i,5,16,0.1
CC1(C(=O)NS(C)(=O)=O)CCN1C(=O)C/C=C/c1ccccc1 (centres undefined),-5.8,i,-30,-59,6.6
CCNC(=O)C[C@H]1CC[C@H]2[C@@H](COC[C@@H](O)CN2C(=O)c2cc(Cl)cc(Cl)c2)O1,-6.1,i,-2,1,1.3
C[C@@H]1CN([C@@H](C)CO)C(=O)c2cccc(NC(=O)c3nc4ccccc4s3)c2O[C@H]1CN(C)CC1CCCCC1,6.7,i,4,4,0.4
CC(C)(C)OC(=O)N1CCCN(C(c2cc3ccccc3o2)c2nnnn2C(C)(C)C)CC1 (centres undefined),3.4,i,9,3,-1.0
CC(C)NC(=O)NC[C@H]1[C@H](c2ccccc2)[C@H](CO)N1C(=O)c1ccccc1,-1.2,i,2,3,-4.9
COC(=O)C[C@H]1CC[C@@H]2[C@H](COc3ccc(NC(=O)Nc4cccc(F)c4)cc3C(=O)N2C)O1,1.5,i,-3,-4,3.8
CC(C)c1ccc(NC(=O)C2(C)Cc3c(-c4cccc(C(F)(F)F)c4)ccnc3O2)cc1 (centres undefined),-6.4,i,-1,11,0.3
Cc1noc(C)c1S(=O)(=O)N(C)C[C@H]1OCc2ccccc2-c2c(n(C)c3ccccc23)C(=O)N([C@@H](C)CO)C[C@@H]1C,-1.1,i,-1,3,-0.1
C[C@H]1Cn2cnc(C(=O)Nc3ccccc3)c2C(=O)N1,-0.9,i,21,12,4.5

# Looked up one by one from above, 2 records:
SMILES,MLL AF4-AF9 inh,FGF22 binding,Ecoli rRNA inh,Ecoli rRNA inh OD600,Ecoli rRNA inh RFP
CCNC(=O)C[C@H]1CC[C@H]2[C@@H](COC[C@@H](O)CN2C(=O)c2cc(Cl)cc(Cl)c2)O1,-6.1,i,-2,1,1.3
Cc1ccc(S(=O)(=O)N(C)C[C@H]2Oc3c(NC(=O)c4ccc(-c5nccs5)cc4)cccc3C(=O)N([C@@H](C)CO)C[C@@H]2C)cc1,1.1,i,-3,-7,0.9

# Continuation.
SMILES,MLL AF4-AF9 inh,FGF22 binding,Ecoli rRNA inh,Ecoli rRNA inh OD600,Ecoli rRNA inh RFP
CS(=O)(=O)N1CCCCN2[C@H](CO)[C@@H](c3ccc(Br)cc3)[C@H]2C1,-2.5,i,4,-1,-1.3
COc1ccc2c3c(n(C)c2c1)[C@@H](CO)N(C(=O)NC(C)C)CC31CN(C(C)=O)C1,-4.1,i,3,-3,-2.2
CCN(C[C@@H]1[C@@H](c2ccccc2)[C@@H](CO)N1C(=O)C1CC1)C(=O)NC1CCCC1,-1.9,i,-1,4,0.0
COc1ccc(S(=O)(=O)N[C@@H]2C=C[C@@H](CC(=O)N3CCc4ccccc4C3)O[C@H]2CO)cc1,1.2,i,4,13,1.6
CO[C@@H]1CN(C)C(=O)c2ccc(NC(=O)C3CC3)cc2OC[C@@H](C)N(CCC(F)(F)F)C[C@@H]1C,0.7,i,-9,-7,3.0
CC(C)c1cn(CC[C@@H]2CC[C@@H](NS(=O)(=O)c3ccccc3)[C@@H](CO)O2)nn1,-3.5,i,0,6,-2.8
CCCC(=O)Nc1ccc2c(c1)OC[C@H](C)N(Cc1cccc(F)c1)C[C@@H](C)[C@@H](OC)CN(C)C2=O,2.5,i,-6,-16,1.8
Cc1ccc(S(=O)(=O)Nc2ccc3c(c2)C(=O)N([C@@H](C)CO)C[C@@H](C)[C@H](CN(C)C(=O)Nc2ccc(F)cc2)O3)cc1,-1.3,i,-1,8,-1.3
C[C@@H]1CN([C@@H](C)CO)C(=O)c2cccc(NC(=O)c3ccc(-c4nccs4)cc3)c2O[C@@H]1CN(C)S(=O)(=O)c1ccccc1,0.0,i,4,8,-1.9
O=S(=O)(N[C@H]1CC[C@@H](CCn2cc(-c3cccc(F)c3)nn2)O[C@@H]1CO)c1ccccc1,-1.4,i,-4,0,2.1
OC(c1ccc(CN2CCCCC2)cc1)c1ncc(-c2ccccc2F)[nH]1 (centres undefined),7.9,i,18,21,2.2
COc1cccc(-c2ccc3c(c2)[C@@H]2[C@@H](CCN2S(=O)(=O)c2ccccc2OC)[C@H](CO)N3)c1,2.2,i,-1,-7,0.4
C[C@H](CO)N1C[C@H](C)[C@H](CN(C)S(=O)(=O)c2ccccc2F)Oc2ncc(C#Cc3cccnc3)cc2C1=O,-0.5,i,-3,-2,-1.6
O=C(Cc1ccncc1)NCC[C@@H]1CC[C@H](NC(=O)C2CC2)[C@@H](CO)O1,-0.9,i,2,1,-3.7
C[C@@H]1CN([C@@H](C)CO)C(=O)Cc2cc(NC(=O)C3CCCCC3)ccc2O[C@@H]1CN(C)CC1CCCCC1,-26,i,-1,-8,-0.8
C[C@@H](NC(=O)C[C@H]1C[C@@H]2c3cc(N(C)C)ccc3O[C@@H]2[C@@H](CO)O1)c1ccccc1,2.8,i,1,3,-0.3
CCC(=O)Nc1ccc2c(c1)C(=O)N(C)C[C@H](OC)[C@H](C)CN(C(=O)c1ccncc1)[C@H](C)CO2,2.0,i,1,-1,-1.1
O=C(Nc1ccccc1F)N1[C@@H]2CNc3ccccc3[C@@H]2[C@@H]1CO,-0.7,i,0,-4,-2.2
C[C@H](CO)N1C[C@H](C)[C@@H](CN(C)C(=O)CCCN(C)C)OCCCC[C@H](C)Oc2ccc(NC(=O)Nc3ccc(F)cc3)cc2C1=O,-11,i,-1,-5,-0.8
COc1ccccc1-c1ccc([C@@H]2[C@H]3CN(C(=O)NC4CCCC4)CCCCN3[C@H]2CO)cc1,-0.1,i,-57,-75,-5.7
C[C@@H]1CN([C@@H](C)CO)S(=O)(=O)c2ccc(/C=C/c3ccccc3)cc2O[C@@H]1CN(C)C(=O)Nc1cc(F)ccc1F,0.2,i,-2,7,-0.1
COc1ccc(S(=O)(=O)Nc2ccc3c(c2)C(=O)N([C@H](C)CO)C[C@H](C)[C@@H](CN(C)Cc2ccccc2)O3)cc1,0.8,i,0,-9,2.1
CC(C)NC(=O)Nc1ccc2c(c1)C(=O)N([C@H](C)CO)C[C@@H](C)[C@H](CN(C)S(C)(=O)=O)OCCCC[C@@H](C)O2,-8.2,i,2,-4,-3.0
COc1ccc(C#Cc2ccc3c(c2)O[C@@H](CN(C)C(=O)c2ccccn2)[C@H](C)CN([C@H](C)CO)S3(=O)=O)cc1,5.3,i,2,-15,9.3
CS(=O)(=O)N1CC(=O)N2[C@@H](CO)[C@H](c3ccc(C#CCC4CCCC4)cc3)[C@@H]2C1,1.3,i,0,-7,2.8
O=S(=O)(c1ccccc1)N1CCCCN2[C@H](C1)[C@@H](c1ccc(C#CC3CCCC3)cc1)[C@@H]2CO,1.6,i,-1,-13,-2.6
C[C@@H]1CN([C@@H](C)CO)C(=O)c2cc(NC(=O)CCC(F)(F)F)ccc2O[C@H]1CN(C)Cc1ccc(-c2ccccc2)cc1,-0.6,i,-4,-3,5.7
COc1cccc(CNc2nc3cc(-c4ccccc4CO)sc3c(=O)n2C)c1,2.1,i,0,-9,-4.8
COc1cccc(S(=O)(=O)Nc2ccc3c(c2)[C@@H]2C[C@@H](CC(=O)NCc4ccc(Cl)cc4)O[C@@H](CO)[C@@H]2O3)c1,-0.4&-1.4,i,-32&-11,-72&-26,-1.0&-5.4
O=C(C[C@H]1CC[C@H](NC(=O)C2CC2)[C@@H](CO)O1)Nc1ccccc1,0.6,i,3,6,-1.4
C[C@H]1CN([C@@H](C)CO)C(=O)c2cc(C#Cc3cccnc3)cnc2O[C@@H]1CN(C)C,-9.2,i,5,13,3.0
CC(C)NC(=O)N(C)C[C@H]1Oc2ccc(NC(=O)Cc3cn(C)c4ccccc34)cc2CC(=O)N([C@H](C)CO)C[C@H]1C,1.4,i,8,10,1.2
C[C@H](CO)N1C[C@H](C)[C@H](CN(C)C(=O)NC2CCCCC2)Oc2ccc(NC(=O)Nc3ccc4c(c3)OCO4)cc2C1=O,1.7,i,-3,-3,1.4
Cn1cnc(S(=O)(=O)N2CC[C@@H]3[C@H]2c2cc(-c4cccc(F)c4)ccc2N[C@@H]3CO)c1,5.0,i,-7,-10,-0.2
C[C@@H]1CN([C@H](C)CO)C(=O)CCCn2nncc2CO[C@H]1CN(C)C(=O)Nc1ccc(C(C)(C)C)cc1,2.2,i,-3,-6,-0.8
C[C@H]1CN([C@@H](C)CO)S(=O)(=O)c2ccc(C#CC3CC3)cc2O[C@@H]1CN(C)C(=O)c1cccc(F)c1,0.7,i,4,-31,1.7

# Laid out differently: entries from further up
C[C@H](CO)N1C[C@H](C)[C@H](CN(C)C(=O)NC2CCCCC2)Oc2ccc(NC(=O)Nc3ccc4c(c3)OCO4)cc2C1=O
- MLL AF4-AF9 inh = 1.7
- FGF22 binding = i
- Ecoli rRNA inh = -3
- Ecoli rRNA inh OD600 = -3
- Ecoli rRNA inh RFP = 1.4

Cn1cnc(S(=O)(=O)N2CC[C@@H]3[C@H]2c2cc(-c4cccc(F)c4)ccc2N[C@@H]3CO)c1
- MLL AF4-AF9 inh = 5.0
- FGF22 binding = i
- Ecoli rRNA inh = -7
- Ecoli rRNA inh OD600 = -10
- Ecoli rRNA inh RFP = -0.2

C[C@@H]1CN([C@H](C)CO)C(=O)CCCn2nncc2CO[C@H]1CN(C)C(=O)Nc1ccc(C(C)(C)C)cc1
- MLL AF4-AF9 inh = 2.2
- FGF22 binding = i
- Ecoli rRNA inh = -3
- Ecoli rRNA inh OD600 = -6
- Ecoli rRNA inh RFP = -0.8
